# High-throughput results from PubChem.
# Mtb growth = Confirmatory growth inhibition assay against Mycobacterium tuberculosis H37Rv, potency (AID 1949); most inactive calls were filed without a number and no value below 0 was filed; 100,000 compounds, 1.6% hits; inhibition, % at 10 µg/mL, or IC50 in µg/mL where a hit was titrated;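 active = confirmed in a dose series; inconclusive = about 50% or more but not retested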;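 also: bacteria grown 7 days with compound before Alamar blue readout; 0% = untreated bacteria and 100% = reference antibiotic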
# An asterisk follows results filed as active; i = inactive; ? = inconclusive. These rows are one share of the data. The share of hits here may be higher or lower than overall.
mol	Mtb growth
CCCCN1C(=O)c2ccc(C(=O)Nc3cccnc3)cc2C1=O	i
O=C(CSCc1ccc(Cl)cc1)Nc1ccccc1-c1ccccc1	3.2%
Cc1ccc(-n2nnnc2SCC(N)=O)c(C)c1	i
O=C(c1ccc(Cl)cc1)N1CCc2ccccc21	i
CCOC(=O)N1CCN(C(=O)c2cccc(OC)c2OC)CC1	i
CCOc1cc(C=O)cc(Cl)c1OCc1ccc(I)cc1	26.9%
COc1ccc(S(=O)(=O)Nc2ncccn2)cc1	i
Cc1cccc(C)c1NC(=O)C(=O)NCc1ccccn1	i
Cc1c(Cl)cccc1NC(=O)C(=S)N1CCOCC1	i
COC(=O)c1sc(NC(=O)C2CCCCC2C(=O)O)c(C(=O)OC)c1C (stereo not given)	i
CCOC(=O)c1c(NC(=O)c2cc3ccccc3o2)sc(C(=O)OC)c1C	i
O=C(c1ccc(F)cc1)N1CCCC(C(=O)N2CCCCCC2)C1 (stereo not given)	i
COc1ccc(C2CC(c3ccco3)n3ncnc3N2)cc1 (stereo not given)	i
CCn1c(SCC(=O)Nc2ccc(Oc3ccccc3)cc2)nnc1-c1ccncc1	i
Cc1cc(NC(=O)c2cnccn2)no1	i

# The list goes on; it opens with the 7 that closed the last part.
mol	Mtb growth
Cc1c(Cl)cccc1NC(=O)C(=S)N1CCOCC1	i
COC(=O)c1sc(NC(=O)C2CCCCC2C(=O)O)c(C(=O)OC)c1C (stereo not given)	i
CCOC(=O)c1c(NC(=O)c2cc3ccccc3o2)sc(C(=O)OC)c1C	i
O=C(c1ccc(F)cc1)N1CCCC(C(=O)N2CCCCCC2)C1 (stereo not given)	i
COc1ccc(C2CC(c3ccco3)n3ncnc3N2)cc1 (stereo not given)	i
CCn1c(SCC(=O)Nc2ccc(Oc3ccccc3)cc2)nnc1-c1ccncc1	i
Cc1cc(NC(=O)c2cnccn2)no1	i
CC1CCc2cc(F)ccc2N1C(=O)c1cnn2c(C(F)F)cc(-c3ccccc3)nc12 (stereo not given)	i
Cc1ccc(-c2cc(C(=O)Nc3ccc4c(c3)OCO4)no2)cc1	0.7%
CN1C2CCC1CC(NCCc1ccccc1)C2 (stereo not given)	i
Cc1ccc(Cn2c(=S)[nH]c3ccccc3c2=O)o1	i
CC(CCC(=O)Nc1ccccc1)C(=O)O (stereo not given)	i
N#CCc1ccc(NC(=O)c2ccccn2)cc1	i
COc1ccccc1OC(C)C(=O)c1ccc(C)cc1 (stereo not given)	22.9%
Cc1onc(-c2ccccc2Cl)c1C(=O)Nc1cc(=O)n(C)c(=O)n1C	i
CNC(=O)n1ccc(C(=O)N2CCCCC2)n1	2.3%
CCOc1ccc(CNC(c2ccccc2)c2ccccc2)cc1	6.9%
Cc1nc(-c2cccc(NC(=O)C(C)C)c2)cs1	i
Cc1noc(C)c1C(=O)NC(C)C1CCCO1 (stereo not given)	i
CC(Cc1c[nH]c2ccccc12)NC(=O)CN (stereo not given)	i
CCOc1ccc(NC(C)c2cc(Cl)ccc2O)cc1 (stereo not given)	1.4%
COc1ccc(OC)c(NC(=O)CN2C(=O)C3C4CCC(C4)C3C2=O)c1 (stereo not given)	i
O=C(Nc1ccccc1)c1ccc(N2CCOCC2)c([N+](=O)[O-])c1	3.9%
Cc1ccccc1NS(=O)(=O)c1ccc(NS(=O)(=O)c2cc(Cl)ccc2Cl)cc1	i
Cc1ccc(NC(=O)OC(C)CNS(=O)(=O)c2ccc(C)cc2)cc1 (stereo not given)	i
O=C(Nc1ccccc1N1CCCC1)c1ccc(Cl)cc1	i
COc1ccc(C(=O)NC(C)C2CC3CCC2C3)cc1 (stereo not given)	i
CCC(=O)c1cn(CC(=O)NC2CCCCCC2)c2ccccc12	i
COc1ccc(S(=O)(=O)Nc2ccc(F)c(Cl)c2)cc1C	3.0%
COc1ccc(-c2ccc3nc(OCc4ccncc4)oc3n2)cc1	35.5%
O=C(CSCc1c(F)cccc1Cl)Nc1ccccc1Br	i
O=C(NCc1ccco1)c1ccc(NC(=O)C2(c3ccccc3)CCCC2)cc1	24.1%
Cc1cccc(NC(=O)CSCc2n[nH]c(=O)[nH]2)c1C	i
CCOc1ccc(CN2CCC(C(=O)N3CCN(Cc4ccc5c(c4)OCO5)CC3)CC2)cc1	1.7%
COc1ccc(C(=O)NCc2ccc(CNC(=O)c3ccc(OC)c(OC)c3)cc2)cc1OC	6.3%
CCN(CC)CCN1C(=O)C(O)=C(C(=O)c2cccs2)C1c1cccs1 (stereo not given)	i
COc1ccc(CNCCCO)cc1OC	i
COc1ccccc1NC(=O)CN(c1cccc(Cl)c1Cl)S(=O)(=O)c1ccccc1	i
CCOc1ccccc1NC(=O)c1cc(-c2ccccc2)oc1C	?
CN(C)CCNc1c([N+](=O)[O-])c(=O)n(C)c2ccccc12	i
CCOC(=O)c1ccc2c(c1)C1C=CCC1C(c1cccnc1)N2 (stereo not given)	i
O=C(Nc1cccc(C(F)(F)F)c1)Nc1nc2c(Cl)cccc2s1	i
Cc1ccc(CNC(=O)COc2cccc(C)c2)cc1	6.8%
CCCCOC(=O)Cn1c(=N)n(CCC)c2ccccc21	i
Cc1cccc(NS(=O)(=O)c2cccs2)n1	i
O=C(CN(c1ccccc1)S(=O)(=O)c1ccc(Cl)cc1)Nc1ccccc1	i
CCOC(=O)c1sc(NC(=O)c2nn3c(C(F)(F)F)cc(-c4cccs4)nc3c2Cl)c(C(=O)OCC)c1C	i
N#CCN(CC#N)S(=O)(=O)c1ccc(Br)cc1	i
O=C(O)CN1CC(c2ccccc2)CC1=O (stereo not given)	i
COc1ccc2c(c1C)CCC/C2=C\CC1(C)C(=O)CCCC1=O	4.4%
CC(=O)Nc1nnc(SCC(=O)Nc2ccccc2C(F)(F)F)s1	i
O=C(Nc1cccc(Cl)c1)c1cc(Br)ccc1Cl	1.53µg/mL*
Cc1ccc(-n2nc3cc(Cl)c(NC(=S)NC(=O)c4cccs4)cc3n2)cc1	2.5%
COCCn1c(CCc2ccccc2)nnc1SCC(=O)Nc1ccc(C)cc1Br	i
O=C(Nc1ccc(Cl)cc1Cl)C1CCCO1 (stereo not given)	i
O=C(O)c1ccc2c(c1)C(=O)N(Cc1cccc(CN3C(=O)c4ccc(C(=O)O)cc4C3=O)c1)C2=O	4.3%
COc1ccc(NC(=O)Cn2nc(C(F)(F)F)c(Cl)c2C)c(OC)c1	i
N#Cc1ccc(-c2ccccc2)nc1SCc1ccc(C(=O)O)cc1	i
O=C(CN1C(=O)c2cccc3cccc1c23)N1CCc2ccccc2C1	1.0%
CCOc1cc(C2C3=C(CC(C)(C)CC3=O)N(c3ccc(C)cc3)C3=C2C(=O)CC(C)(C)C3)ccc1O	i
CCc1cccc(CC)c1NC(=O)c1ccccc1CCc1ccccc1	i
CCCCNS(=O)(=O)c1ccc(NC(=O)Cc2ccccc2[N+](=O)[O-])cc1	i
CCCSc1nc2c(c(=O)[nH]1)C(c1ccccc1Br)C1=C(CCCC1=O)N2 (stereo not given)	i
COc1ccc(C2C(C#N)=C(N)Oc3n[nH]c(C)c32)cc1CN1CCCc2ccccc21 (stereo not given)	5.3%
CCOC(=O)COc1ccc2c(=O)c(Oc3ccccc3Cl)coc2c1	2.08µg/mL*
C=CCOc1c(Br)cc(CNCCCN2CCOCC2)cc1OCC	i
Cc1cccc(C(=O)NC(=S)Nc2ccc(C(=O)O)cc2)c1	i

# (listing goes on)
mol	Mtb growth
CC(=O)Nc1ccc(N2C(=O)c3ccccc3C2(O)Cc2ccccc2)cc1 (stereo not given)	i
O=C(Nc1ccc(I)cc1)c1ccccc1SCc1ccccc1	i
Cc1ccc(C(=O)C(C)Oc2ccc(NC(=O)c3cccc([N+](=O)[O-])c3)cc2)cc1 (stereo not given)	14.3%
CCOC(=O)c1ccc(NC(=S)Nc2ccc(Br)cn2)cc1	i
CN(CC(=O)NCc1ccc(Cl)cc1)S(=O)(=O)c1cc(Cl)ccc1Cl	i
COc1ccc(C2CC(c3ccc(Br)cc3)=NN2C(C)=O)cc1OC (stereo not given)	?
CCOC(=O)c1ccc(NC(=O)N2CCN(c3ncccn3)CC2)cc1	i
C=CCc1cc(C)ccc1CC(O)Cn1c(C)nc2ccccc21 (stereo not given)	?
Cc1ccc(NC(=O)C(=O)NCCN(C)C)cc1	i
O=C(Nc1cc2ccc(O)cc2oc1=O)c1ccc(Cl)cc1	3.2%
Nc1cccc(NC(=O)c2ccccc2Br)c1	i
CC(C)c1ccc(OCC(=O)Nc2nc3ccc([N+](=O)[O-])cc3s2)cc1	i
O=C(O)CCCCN1Cc2ccccc2C1	i
COC(=O)COc1ccc(S(=O)(=O)N2CCN(c3ccc(OC)cc3)CC2)cc1	i
CCCN(CCC)c1ncnc(N)c1[N+](=O)[O-]	i

# Two successive entries from above, quoted:
mol	Mtb growth
CC(=O)Nc1ccc(N2C(=O)c3ccccc3C2(O)Cc2ccccc2)cc1 (stereo not given)	i
O=C(Nc1ccc(I)cc1)c1ccccc1SCc1ccccc1	i

# Next compounds follow:
mol	Mtb growth
CCc1ccc(NC(=O)c2ccc(N(C)S(=O)(=O)c3ccc(C)cc3)cc2)cc1	i
CC1(C(=O)c2ccc(Cl)cc2)C2c3c(ccc4ccccc34)OC(=O)C21C(=O)N1CCOCC1 (stereo not given)	i
CC(=O)Nc1ccc(Br)cc1C(=O)OCc1ccc(Cl)c(Cl)c1	i
CN1C2=C(C(=O)CC(C)(C)C2)C(c2cc(Cl)ccc2O)C2=C1CC(C)(C)CC2=O	2.7%
CCOC(=O)C1CCCN(S(=O)(=O)c2ccc(OC)c(OC)c2)C1 (stereo not given)	i
CS(=O)(=O)Nc1ccc(C(=O)NCCC2=CCCCC2)cc1	i
COc1ccc(OC)c(S(=O)(=O)N2CCC(C(=O)Nc3ccc(Cl)cc3)CC2)c1	i
O=C(Nc1cc(C(F)(F)F)ccc1N1CCOCC1)c1cccc(I)c1	i
COc1cc(Br)ccc1NC(=O)c1ccc(C)cc1	35.4%
C#CCSc1nc2sc(C)c(C)c2c(=O)n1C	i
c1ccc2c(CNc3ccc(CNc4ncn[nH]4)cc3)cccc2c1	i
O=C1CC(c2cccc(C(F)(F)F)c2)c2cc3c(cc2N1)OCO3 (stereo not given)	i
COc1ccccc1CNC(=O)c1oc2ccccc2c1C	i
CCCOc1ccccc1NC(=O)Nc1ccccc1Cl	1.3%
CCN(CC)S(=O)(=O)c1ccc(NC(=O)CN(c2cccc(OC)c2)S(=O)(=O)c2ccccc2)cc1	i
COc1ccc(S(=O)(=O)N2CCC(C(=O)NCc3cccnc3)CC2)cc1OC	i
Cc1csc(SCC(=O)Nc2cccc3nsnc23)n1	i
Cc1ccccc1-n1c(SC(C)C)nc2ccc(I)cc2c1=O	i
Cc1ccc2nc(SCC(N)=O)nc(C)c2c1	i
CCOC(=O)C1=C(C)NC(=O)NC1c1cc(I)ccc1OCC (stereo not given)	i
COc1cc(-n2nnnc2SCC(=O)Nc2cccc(Cl)c2Cl)c(OC)cc1Cl	i
CCOc1ccc(NC(=O)c2ccc(OCc3ccccc3)c(OC)c2)cc1	0.5%
CCCSc1ccc2nc(NC(=O)CSc3nc(C)cc(C)n3)[nH]c2c1	2.8%
COc1ccc(N(CC(=O)N2CCCCCC2)S(C)(=O)=O)cc1OC	i
CSc1nnc(COc2cccc3ccc(C)nc23)n1C	i
COc1ccc(NC(=O)CSC2=C(C#N)C(c3ccc(C(C)C)cc3)C3=C(CCCC3=O)N2)cc1 (stereo not given)	8.3%
O=C(CCSc1ccccc1)N1CCCC1	i
O=C(Oc1ccccc1N1C(=O)CCC1=O)c1ccc(Br)cc1	i
Cc1ccc(OCC(=O)Nc2ccc(Cl)cn2)cc1	i
COc1ccc(NS(=O)(=O)c2ccc(NC(=O)COc3ccc(C(C)(C)C)cc3)cc2)cc1	i
CCCc1ccc(OC(=O)COc2cc(Cl)ccc2Cl)cc1	i
CCOc1ccccc1NC(=S)NNS(=O)(=O)c1c(C)cc(C)cc1C	i
COc1ccc(OC)c(N(CC(=O)Nc2cccc(C(F)(F)F)c2)S(C)(=O)=O)c1	i
O=c1c2ccccc2cnn1CCCCOc1ccc(Cl)cc1	i
O=C1CCC(=O)N1OCCCOc1ccc(Br)cc1Cl	2.8%
COc1ccc(OC(=O)COc2ccccc2Cl)cc1	i
CCOc1ccc(NC(=S)Nc2ccc(OCc3ccccc3)cc2)cc1	?
CCCCOc1cc(C)cc2oc(=O)cc(C)c12	i
CCCCc1ccc(NC(=S)NCCO)cc1	13.6%
Cc1ccc(S(=O)(=O)N(Cc2ccccc2)c2ccccc2C(=O)Nc2ccccc2C(C)C)cc1	13.4%
CCOc1ccc(NC(=O)CSc2nnc(-c3ccncc3)n2CC(C)C)cc1	i
CCCCc1nnc(NC(=O)CCCN2C(=O)c3ccccc3C2=O)s1	i
Cc1c(Cl)cccc1NC(=O)c1ccc2c(c1)C(=O)N(CC1CCCO1)C2=O (stereo not given)	i
Cc1ccc(C(=O)Nc2cc(-c3nc4ncccc4o3)ccc2C)c(C)c1	i
Cc1ccc(S(=O)(=O)N2C(=O)CCC2C(=O)Nc2cc(C(F)(F)F)ccc2Cl)cc1 (stereo not given)	i
O=c1[nH]c2ccc(S(=O)(=O)Nc3ccc(Br)cc3)cc2[nH]1	i
CC(=O)c1c(C)nn(CC(O)COc2ccc3ccccc3c2)c1C (stereo not given)	1.2%
Cc1ccc(SCC(=O)Nc2ccc(Br)cc2C(=O)O)cc1	2.6%
CC(=O)NCCNc1ccc([N+](=O)[O-])cc1Cl	i
O=S(=O)(c1c(F)cccc1F)N1CCN(c2ccccc2)CC1	i
